Mtb hypoxia inh = reduces hypoxia-regulated biosensor signal in M. tuberculosis; M. tuberculosis hypoxia-regulated fluorescent reporter, fluorescence; fluorescence inhibition, % (test concentration not listed); 0.1% of 300,000 active; AID 1159583;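 active = 35 to 45% if threefold the growth effect, above 45% if 1.5-fold the growth effect; inactive = the rest, general growth blockers included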;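 also: wells of about 50 µL received 100 nL stock; 0% = vehicle wells and 100% = reference inhibitor wells; whole bacteria with a GFP reporter of the hypoxia response; strong numbers were not always called active; many hits fall short of the cut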
BJeLR lethal = BJeLR cell viability loss; AID 1554; inhibition, % (test concentration not listed); BJeLR (HRASV12) viability, CellTiter-Glo ATP luminescence, 48 h; reference of the scale not given here; 0.17% of 300,000 active;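 active = replicate mean above 50%; inconclusive = above 50% but judged a plate artefact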;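 also: 50 nL library stock added to about 25 µL; numbers are from one replicate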
ugtP null kill = kills S. aureus RN4220 lacking UgtP | S. aureus RN4220 ugtP deletion, OD600 growth, 16 h; some inactives read as strong as hits | growth inhibition, % (test concentration not listed) | 0.54% of 330,000 active | AID 1259309;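 active = z-score under -3 and OD600 up to 0.15 on both plates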;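 also: plate controls were untreated wells for no effect and antibiotic for full effect; wells of about 80 µL received 100 nL stock; the first replicate is given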
Bead autofluor = compound fluorescence in toxin protease inhibitor counterscreen | fluorescence intensity (test concentration not listed) | AID 624483 | compound autofluorescence counterscreen, microsphere flow cytometry; hits give high values | 3.1% of 360,000 active;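 active = at least 3 SD above the mean of all compounds, about 16000 in these data; inconclusive = too few beads counted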;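 also: 100 nL of 1 mM stock went into each well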
RN4220 kill = S. aureus RN4220 growth inhibition; OD600, 16 h; inhibition, % (concentration not given with the values); 0.33% of 330,000 active;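 active = z-score of -3 or lower and OD600 up to 0.18 on both plates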;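 also: plate controls were untreated cells for no effect and reference antibiotic for full effect; stock transfer was 100 nL into about 80 µL; one replicate is shown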
PrP 5UTR inh = inhibition of PrP 5' UTR reporter expression. inhibition, % (concentration not given with the values). 0.35% of 340,000 active. cell-based PrP 5' UTR mRNA reporter, plate reader. AID 488862;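 active = every replicate at 50% or more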;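 also: 0 = median of the neutral control wells; tested in H4 reporter cells; numbers are from one replicate; inactives centre near -14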
Mtb hypoxia inh growth = further read-out of Mtb hypoxia inh, marked with its call; growth inhibition, %; measured here: M. tuberculosis growth (absorbance);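 0% = vehicle and 100% = reference antibiotic; read after six days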
Starred values were filed as active, the others as inactive; ? = inconclusive; / = not tested or not shown.

Start of the data: the first three compounds, to show the layout:
Screens in order – Mtb hypoxia inh	Mtb hypoxia inh growth	BJeLR lethal	ugtP null kill	Bead autofluor	RN4220 kill	PrP 5UTR inh
- Cc1cc(C(=O)Nc2ccc(S(=O)(=O)Nc3nccs3)cc2)c(C)o1
    18	7	2	6	24552*	4.2	-18
- COc1ccc(CCC(=O)N2CCN(c3ccccc3)CC2)cc1OC
    /	/	-21	/	3749	/	-24
- COc1cccc(CNC(=O)CSc2cc(=O)n(C)c3ccccc23)c1
    -13	-6	-1	3	2581	3.4	-15

The listing (from the top)
Screens in order – Mtb hypoxia inh	Mtb hypoxia inh growth	BJeLR lethal	ugtP null kill	Bead autofluor	RN4220 kill	PrP 5UTR inh
- Cc1cc(C(=O)Nc2ccc(S(=O)(=O)Nc3nccs3)cc2)c(C)o1
    18	7	2	6	24552*	4.2	-18
- COc1ccc(CCC(=O)N2CCN(c3ccccc3)CC2)cc1OC
    /	/	-21	/	3749	/	-24
- COc1cccc(CNC(=O)CSc2cc(=O)n(C)c3ccccc23)c1
    -13	-6	-1	3	2581	3.4	-15
- CC(C)[C@H](NC(=O)N1CCn2c1nc1ccccc12)C(=O)NCc1ccccc1Cl
    2	-3	1	2	4298	0.4	-103
- Cc1ccc(C(=O)CCC(=O)NC2=NCCS2)cc1
    -3	-1	/	3	?	4.8	-10
- CCN1C(=O)c2cccc3c(S(=O)(=O)Nc4ccc(O)c(C(=O)O)c4)ccc1c23
    13	2	-5	7	5530	2.2	-13
- COc1ccc(C(c2sc3nc(C)nn3c2O)N2CCN(Cc3ccccc3)CC2)cc1OC (stereo unspecified)
    4	5	11	1	5490	-14	0
- O=C(OCC(=O)N1CCOCC1)c1cnc(Cl)c(Cl)c1
    15	-1	/	9	3752	6.1	-10
- COc1ccc(CNC(=O)CC(C)=NNC(=O)Cc2ccc(OC)cc2)cc1
    -8	-5	/	3	/	4.1	/
- O=[n+]1c2c(n([O-])c3ccccc31)CCC2
    5	6	-2	-3	3680	2.2	-18
- CC(NC(=O)c1ccc2nc[nH]c2c1)c1ccccc1 (stereo unspecified)
    7	2	5	8	1990	0.2	-15
- COc1ccc(O)c(C(=O)c2cc(C#N)c(=O)n(Cc3ccccc3)c2)c1
    7	-5	4	-6	2759	1.2	-24
- CCOc1ccc(N(C(=O)CNC(=O)c2cccs2)C(C(=O)NCC2CCCO2)c2ccc(OC)c(OC)c2)cc1 (stereo unspecified)
    2	5	2	0	3723	4.0	-1
- O=C(C=CC(=O)OC1CCCCC1)OC1CCCCC1
    22	5	/	8	2959	0.2	-6
- COc1cc(OC)c(NC(=O)CCCn2c(=O)oc3ccccc32)cc1Cl
    13	4	-13	-1	2657	3.3	-9
- Cc1cc(C)nc(NC(N)=NCCc2c[nH]c3ccccc23)n1
    17	8	21	-4	4588	1.1	-26
- Cc1cc(C)n(CCC(=O)N/N=C/c2ccc(Br)c([N+](=O)[O-])c2)n1
    /	/	2	/	5869	/	-20
- O=c1oc2cc(OCc3c(F)cccc3Cl)ccc2cc1-c1ccccn1
    7	0	-1	6	2584	7.4	-76
- CC1Cc2cc(/C(O)=C3\C(=O)C(=O)N(CCN(C)C)C3c3ccccc3F)ccc2O1 (stereo unspecified)
    7	15	4	7	9106	0.9	-26
- COc1ccc(CC(=O)NNC(=S)NC(=O)c2cccnc2)cc1
    -32	-15	8	0	4406	7.1	-16
- O=C(O)CNc1ncccc1[N+](=O)[O-]
    -2	13	-2	-2	2080	3.5	-11
- COc1ccc2cc(N=Cc3nc(-c4ccc(C)cc4)oc3O)cnc2c1
    5	13	0	8	4511	2.9	-10
- O=C(CN1c2ccccc2Sc2ccccc21)N/N=C/c1ccc([N+](=O)[O-])cc1
    /	/	2	/	3068	/	-10
- Cc1ccc(/C=N\NC(=O)C2COc3cc4ccccc4cc3O2)o1 (stereo unspecified)
    /	/	-5	/	2187	/	-21
- Cc1ccc(SCCOCCN2CC(C)OC(C)C2)cc1 (stereo unspecified)
    -3	4	-3	3	4218	3.7	-17
- CCN(CC)S(=O)(=O)c1cc(C(=O)Oc2cccc(-c3cnc4ccccc4n3)c2)ccc1OC
    4	9	-12	-17	2256	8.7	-70
- CCc1ccccc1NC(=O)C1=CC(c2ccc(OC)c(OC)c2)=NS(=O)(=O)N1C
    11	6	0	1	6201	-12	-17
- CCOc1ccc(CNC(=S)NN=Cc2ccc(OC)c(OC)c2)cc1
    2	-4	/	17	/	8.7	/
- Cc1cccc(NC(=O)Cn2nnc(-c3cccs3)n2)c1C
    10	-10	-8	0	?	2.7	7
- CC(=O)N1CCN(c2ccc(NC(=O)c3cccc([N+](=O)[O-])c3)cc2)CC1
    -3	5	0	4	4198	3.0	-4
- COc1ccccc1NC(=O)Nc1nc(CC(=O)Nc2ccc(F)cc2)cs1
    -6	-3	3	-12	/	-4.0	-7
- CCOC(=O)N1CCN(c2ccc(F)cc2[N+](=O)[O-])CC1
    22	18	4	-3	4496	7.6	-11
- CC(=O)c1c(C)[nH]c(C(=O)Nc2ccc(C)cn2)c1C
    /	/	0	1	2968	3.0	43
- Nc1cc(N)nc(SCC(=O)NCC2CCCO2)n1 (stereo unspecified)
    4	14	4	7	20538*	3.3	-1
- Cn1ncc2c(NCc3ccccc3)nc(NCCCO)nc21
    1	0	-5	-9	6128	0.8	-14
- CCCCOc1ccc(CNn2c(C)nc3ccccc3c2=O)cc1
    1	8	1	-3	10615	4.0	-14
- COc1ccc(NC(=O)CCN2CCCCCC2)c(OC)c1
    7	2	11	1	8833	1.3	-31
- CC(=O)Nc1ccccc1OCC(=O)NC(C)c1ccc(F)cc1 (stereo unspecified)
    7	-2	-21	13	2072	5.2	-14
- CCS(=O)(=O)Nc1ccc(C2=NN(C(=S)Nc3ccccc3)C(c3ccco3)C2)cc1 (stereo unspecified)
    -8	0	-5	-25	3369	-0.2	-21
- O=C(NC(=S)NCCc1ccccc1)c1ccco1
    /	/	-1	/	2305	/	-48
- O=C(Nc1ccccc1)Nc1ccc(F)c([N+](=O)[O-])c1
    2	3	9	-30	2442	-11	-24
- O=S(=O)(Nc1ccncc1)c1ccccc1
    4	3	8	1	9225	0.2	-14
- CCOc1cccc(/C(O)=C2/C(=O)C(=O)N(CCN3CCOCC3)C2c2cccnc2)c1 (stereo unspecified)
    /	/	-5	-3	4790	0.5	1
- CC1(C)N=C(/C=N/O)C=[N+]1[O-]
    /	/	3	/	2939	/	-18
- c1ccc(-c2cnc(-c3ccccc3)nc2)cc1
    -2	-1	-7	1	7478	2.9	-19
- CC(NC(=O)c1cccc(OC2CCN(C(=O)C3CC3)CC2)c1)c1ccc(F)cc1 (stereo unspecified)
    -4	1	-3	-2	6985	1.1	-1
- O=C(NCc1ccccc1)c1ccccc1OCC(=O)N1CCCCC1
    -1	-8	-5	8	22260*	6.1	-8
- CCSc1ccc([C@@H]2[C@@H]3C(=O)N(CC)C(=O)[C@@H]3[C@]3(C(=O)OC)CCCCN23)cc1
    /	/	-5	/	3027	/	-11
- COc1cccc(C(=O)OCC(=O)Nc2cc(C)on2)c1OC
    -6	3	/	-2	3963	1.4	-13
- Cc1noc(C)c1S(=O)(=O)N1CCC(C(=O)N2CCC(N3CCCCC3)CC2)CC1
    -2	3	-3	-7	5965	-8.1	-13
- CCC(=O)Nc1cccc(C2=NOC3(C2)C[C@@H](C(N)=O)N(C(=O)COc2ccc(Cl)cc2)C3)c1 (stereo partly specified)
    /	/	-11	/	3655	/	-26
- COc1ccccc1C(=O)COC(=O)CNC(=O)c1ccc(Br)o1
    -3	1	6	1	?	4.6	2
- CC(=NNC(=O)c1cc2c(s1)CCC(C)C2)c1ccc[nH]1 (stereo unspecified)
    10	15	/	-8	/	6.5	/
- Cc1noc(C)c1CSc1nnc2n(-c3ccccc3)c(=O)c3ccccc3n12
    12	4	3	-1	2741	0.7	-11
- O=C1CCCC2=C1C(c1ccc(OS(=O)(=O)c3ccc(Cl)cc3)cc1)C1=C(CCCC1=O)O2
    3	1	8	5	6303	-0.9	-20
- COc1ccc(C(=O)CSc2ncnc3nc[nH]c23)cc1
    8	3	-4	8	4084	3.0	-30
- Cc1ccc(CC(=O)NCCCc2ccccc2)cc1
    /	/	3	11	3629	-0.6	-10
- O=C(COC(=O)c1n[nH]c2ccccc12)Nc1ccccc1Br
    3	6	/	-8	3778	2.6	-18
- CCc1cccc(CC)c1NC(=O)NC1CCCCC1
    0	-3	3	-1	10936	2.4	0
- COc1cccc(NC(=O)N2CCC(n3nnc4ccccc43)CC2)c1
    17	5	1	2	3688	-0.3	-5

Random excerpt: 2 records from the list.
Screens in order – Mtb hypoxia inh	Mtb hypoxia inh growth	BJeLR lethal	ugtP null kill	Bead autofluor	RN4220 kill	PrP 5UTR inh
- O=C(COC(=O)c1n[nH]c2ccccc12)Nc1ccccc1Br
    3	6	/	-8	3778	2.6	-18
- CCC(=O)Nc1cccc(C2=NOC3(C2)C[C@@H](C(N)=O)N(C(=O)COc2ccc(Cl)cc2)C3)c1 (stereo partly specified)
    /	/	-11	/	3655	/	-26

Other entries follow:
Screens in order – Mtb hypoxia inh	Mtb hypoxia inh growth	BJeLR lethal	ugtP null kill	Bead autofluor	RN4220 kill	PrP 5UTR inh
- CCN(CC)C(=O)C(=O)c1cccn1-c1cccc(OC)c1C#N
    14	9	-14	3	2642	5.1	-14
- COc1ccc(C(=O)C2CCCN(C(=O)c3ccc(F)cc3)C2)cc1OC (stereo unspecified)
    8	3	-4	-1	6499	-1.1	-8
- CC(C)Cc1nnc(NC(=O)CCC(=O)NC2CCCCCCC2)s1
    6	-9	-8	11	4392	0.9	-22
- Cc1ccc(/C=N/NC(=O)c2cccs2)cc1[N+](=O)[O-]
    /	/	-9	/	2102	/	-72
- O=C(NC1CCCC1)C1CCC(CNS(=O)(=O)c2ccccc2)CC1 (stereo unspecified)
    3	-13	-10	3	5974	1.3	-27
- Cc1c(C(=O)NCC2CCCO2)oc2c(Cl)cccc12 (stereo unspecified)
    0	-4	2	3	?	4.5	-5
- O=C(O)C1=C[C@@H](C2CC2)C[C@@H](OCCCCO)O1
    /	/	5	/	3039	/	-25
- CCC(=O)Nc1nn(C)c2nc3c(C)cccc3cc12
    3	3	8	-1	2519	0.3	-1
- Cc1nnc(SCC(=O)N/N=C/c2cc(Cl)c(O)c(Cl)c2)s1
    /	/	10	/	2436	/	-9
- Oc1ccccc1CN(CCc1ccccc1)Cc1ccccc1
    -1	2	-1	29	3047	-0.2	-3
- O=C(NCCc1ccccn1)c1cc2ccccc2o1
    8	-2	-7	-2	3901	1.1	-49
- CC(=O)N(Cc1cc(=O)[nH]c2ccccc12)c1ccc(C)cc1C
    4	-7	0	-2	3992	4.7	-13
- CC(C)(C)NC(=S)N/N=C/c1cc(Br)c(O)c(Br)c1
    /	/	5	/	5892	/	-36
- NC(=O)CN1C(=O)C(O)(CC(=O)c2ccccc2O)c2ccccc21 (stereo unspecified)
    /	/	-15	/	3704	/	-17
- COCCNC(=O)CSc1ccccc1C(=O)O
    3	4	-3	-3	3166	3.4	40
- CCCC1O[C@@H]2CC3C4CCC5=CC(=O)C=C[C@]5(C)C4C(OC(C)=O)C[C@]3(C)[C@]2(C(=O)COC(C)=O)O1 (stereo partly specified)
    1	-1	-2	-4	4184	5.8	-7
- Cc1nn(C)cc1CNC(=O)c1cccc(Br)c1
    8	6	-16	6	3431	5.3	-13
- COc1ccc(N2CCN(c3ncnc4scc(-c5ccc(F)cc5)c34)CC2)cc1
    -22	-16	9	10	/	2.3	0
- Cc1ccccc1NC(=O)CCN1CCCCCC1
    2	5	6	-6	4034	0.5	-26
- COC(=O)[C@@H]1CCCN1C(=O)c1cc(COc2cccc3cccnc23)on1
    2	4	-4	-2	5432	0.1	-18
- O=C(NN=C/C=C\c1ccccc1[N+](=O)[O-])c1ccco1
    -7	2	/	2	/	1.7	/
- COc1cccc(OC)c1C(=O)OCC(=O)NCC(C)C
    15	9	1	1	3284	-0.5	33
- O=C(/C=C/N1CCOCC1)c1ccc(-c2ccccc2)cc1
    8	8	2	-4	9964	6.2	-77
- Cc1ccc(-c2noc(CC(c3ccccc3)c3ccccc3)n2)cc1
    0	1	-5	57	4238	-4.8	5
- O=C1c2cccnc2C(=O)N1Cc1ccc2c(c1)OCO2
    2	19	2	-3	15745	4.7	-14
- CC(=O)c1cccc(NC(=O)C2CC(c3ccc(F)cc3)=NO2)c1 (stereo unspecified)
    2	-4	3	-5	4262	0.3	-24
- CCOC(=O)c1[nH]c(C)c(/C(O)=C2\C(=O)C(=O)N(CCN(C)C)C2c2ccncc2)c1C (stereo unspecified)
    /	/	5	/	2321	/	-10
